Screening results deposited in PubChem by Johns Hopkins Ion Channel Center.
Kir21 inh – blocks the mouse Kir2.1 inward-rectifier potassium channel; P35561; HEK293-Kir2.1, FluxOR thallium flux fluorescence; active compounds read low; B-score at 10 µM; actives 0.85% (n = 310,000); AID 1672;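 active means fluorescence ratio B-score at or below minus 3 SD of library scores, with starting-brightness B-score within 2 SD, cut at about -4.2 in these data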;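 further: channel flux triggered by added potassium and thallium sulfate stimulus; B-score of peak minus minimum fluorescence over baseline after thallium stimulus; more negative B-score means stronger Kir2.1 block with less thallium influx; some compounds called inactive have numbers as strong as hits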
Target sequence (P35561 whole entry, looked up): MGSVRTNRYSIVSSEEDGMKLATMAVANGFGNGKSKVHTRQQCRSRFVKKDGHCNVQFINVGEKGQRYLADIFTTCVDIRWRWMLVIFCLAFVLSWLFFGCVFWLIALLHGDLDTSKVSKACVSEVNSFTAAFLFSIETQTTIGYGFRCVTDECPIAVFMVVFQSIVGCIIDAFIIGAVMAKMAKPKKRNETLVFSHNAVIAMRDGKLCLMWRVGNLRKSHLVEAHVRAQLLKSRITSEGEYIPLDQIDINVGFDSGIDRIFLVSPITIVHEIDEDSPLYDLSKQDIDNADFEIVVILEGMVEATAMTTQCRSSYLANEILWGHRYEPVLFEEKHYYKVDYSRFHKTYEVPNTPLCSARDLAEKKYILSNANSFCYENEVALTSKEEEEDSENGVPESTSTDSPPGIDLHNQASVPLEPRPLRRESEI
* marks the source's active call; other numbers are inactive results.

Molecule,Kir21 inh
CCOC(=O)C1=C(CC)Nc2ccccc2N=C1NC(=O)c1cc(S(=O)(=O)N(C)C)ccc1Cl,-0.41
CCN(CC)S(=O)(=O)c1ccc2oc(SCC(=O)NC3CC3)nc2c1,2
O=C(CSCC(=O)N1CCOCC1)Nc1nc(-c2ccc3c(c2)OCO3)cs1,-0.24
COc1ccc(-c2cc(C(=O)Nc3cccc(O)c3)no2)cc1,-0.03
O=C(NCC1CCCO1)C1CC(=O)N(C2CCCCCC2)C1 (centres undefined),-0.64
Cc1cc(C(F)(F)F)nn1CC(=O)NNC(=S)NCC(C)C,-0.67
O=C(CSc1nc2ncc(Cl)cc2[nH]1)NC1CCS(=O)(=O)C1 (centres undefined),0.29
[O-]/[N+](=C\c1cccc(Br)c1)c1ccccc1,2.2
CCOC(=O)C1CCCN(C(=O)c2cc3c(OC)c(OC)c(OC)cc3[nH]2)C1 (centres undefined),-0.01
CN(CC(=O)Nc1ccc(F)c(F)c1F)C(=O)CC1OC(=O)c2ccccc21 (centres undefined),-1.8
O=C(NCCc1ccccc1)C(=O)NCC1CCCN1S(=O)(=O)c1ccccc1 (centres undefined),-1.8
CN(C)c1cccc(C(=O)N(C)C2CCCN(Cc3ccccc3F)C2)c1 (centres undefined),1.2
Cc1nn(-c2ccccc2)c(C)c1/C=N\NS(=O)(=O)c1ccc(Cl)cc1,1.7
Cc1cc(S(=O)(=O)N2CCCC(C)C2)ccc1-n1cnnn1 (centres undefined),0.03
O=C(N/N=C/c1ccoc1)c1ccccc1,-0.56
O=C(O)C(Oc1ccc2cc(-c3ccc(Cl)cc3)c(=O)oc2c1)c1ccccc1 (centres undefined),0.28
Cc1noc(C)c1C(=O)N1CCN(S(=O)(=O)c2cccs2)CC1,-0.17
CC(=O)Nc1ccc(SCC(=O)Nc2cc(C)on2)cc1,-0.09
CC(C)n1c(NCc2cc(Cl)ccc2O)nc2ccccc21,-0.03
CCN(CC)c1ccc(/C=N/NC(=O)c2c(Cl)c(C)nn2C)cc1,0.48
CCOc1ccc(C(=O)NCc2ccco2)cc1OCC,0.1
CCn1ncc([N+](=O)[O-])c1C(=O)n1nc(C)cc1C,-1.1
Cc1cccc(NS(=O)(=O)c2cc(C(=O)OC(C)C(=O)NCc3ccc4c(c3)OCO4)ccc2C)c1 (centres undefined),0.03
O=C(/C=C/Nc1ccc(S(=O)(=O)Nc2ncccn2)cc1)c1cccs1,-0.37
CN(C)/C=C/C(=O)c1ccccc1,-0.39
O=Cc1ccccc1OCc1ccc2c(c1)OCO2,-1.1
CCN(CC)S(=O)(=O)c1cccc(-c2nnc(SC(C)C#N)n2Cc2ccccc2)c1 (centres undefined),0.1
CCCCNC(=O)CSc1nc(COc2ccccc2)nc2ccccc12,-0.92
Cc1nnc2ccc(-c3ccc(NC(=O)c4ccc(Cl)nc4)cc3)nn12,-1.6
O=C(COc1ccccc1Cl)N(Cc1ccco1)C1CCS(=O)(=O)C1 (centres undefined),-0.05
O=C(CSc1nnc(-c2ccccc2)c(-c2ccccc2)n1)N1CCOCC1,-0.31
O=C1C(Cc2ccc3[nH]ccc3c2)NC(=S)N1c1ccccc1 (centres undefined),-0.62
NS(=O)(=O)c1ccc(CCN=C(NS(=O)(=O)c2cccs2)c2ccccc2)cc1,0.28
CCOc1nc(-c2ccncc2)nc2ccccc12,3.7
Cc1nc(-c2ccc(S(=O)(=O)N3CCN(CCc4ccccc4)CC3)s2)cs1,1.6
Cc1cc(C)nc(N(C#N)S(=O)(=O)c2ccccc2)n1,1.6

Fetched by structure from the entries so far (3):
Molecule,Kir21 inh
O=Cc1ccccc1OCc1ccc2c(c1)OCO2,-1.1
COc1ccc(-c2cc(C(=O)Nc3cccc(O)c3)no2)cc1,-0.03
CCOC(=O)C1CCCN(C(=O)c2cc3c(OC)c(OC)c(OC)cc3[nH]2)C1 (centres undefined),-0.01

Following part.
Molecule,Kir21 inh
CCc1ccc(-c2nc(C)c(CCO)c(=O)[nH]2)cc1,-0.78
COCCN(CC(=O)Nc1ccccc1)S(=O)(=O)c1ccc(S(=O)(=O)N2CCCC2)cc1,1.1
CC(C)c1ccc(NC(=O)N2CCN(S(=O)(=O)c3ccccc3)CC2)cc1,1.2
CS(=O)(=O)N(Cc1ccco1)CC(O)Cn1cc(C=O)c2ccccc21 (centres undefined),-0.1
CCSc1nc2ccc(N3C(=O)C4C5C=CC(C5)C4C3=O)cc2s1 (centres undefined),-0.98
COc1cc(OC)c(OC)cc1/C=N/NC(=O)c1cc(-c2cccn2C)n[nH]1,-0.72
Cc1ccccc1Nc1nc(N)nc(CSc2nncn2C)n1,0.55
Cc1[nH]c2c(Cl)cccc2c(=O)c1CN1CCCC1,-0.08
CC(=O)c1sc(NC(=O)C2CC(=O)N(Cc3ccccc3)C2)nc1-c1ccccc1 (centres undefined),-1.5
COC(=O)CCCC1=CC2=CC(=O)C(C)(OC(=O)c3cccs3)C(=O)C2=CN1C1CCCCC1 (centres undefined),-0.74
CCCN1C2=C(C(=O)CCC2)C(c2ccc(O)c(Br)c2)C2=C1CCCC2=O,0.77
Cc1cc(/C=C(\C#N)C(=O)NC2CC2)c(C)[nH]1,1.8
COc1cccc(C(=O)N(Cc2ccc3c(c2)OCO3)Cc2nc3ccccc3c(=O)[nH]2)c1,-1.2
COC(=O)Cc1c(C)nc2nc(Cc3ccccc3)[nH]n2c1=O,-0.02
Cc1nc2n(c(=O)c1CCN1CCC(c3noc4cc(F)ccc34)CC1)CCCC2,-0.02
Cc1ccc(-n2ncc3c2CC(C)(C)CC3NC(=O)c2ccc[n+]([O-])c2)cc1 (centres undefined),-0.41
O=C(CCCN1C(=O)c2ccccc2C1=O)Nc1ccc(S(=O)(=O)N2CCCCC2)cc1,-0.88
O=C(Cn1nnc(-c2ccccc2)n1)NCc1ccc2c(c1)OCO2,0.76
CCNC(=O)Cn1cnc2c1c(=O)n(C)c(=O)n2C,-0.57
Fc1ccccc1CSc1nnc(-c2cccs2)o1,-1.2
O=C(Cn1cc([N+](=O)[O-])cn1)Nc1ccc(Cn2cc(Br)cn2)cc1,-0.04
COC(=O)CSc1nc2nc(-c3cccs3)cc(C(F)(F)F)c2c(=O)[nH]1,0.07
O=C(NNC(=O)c1ccccc1O)c1ccc(S(=O)(=O)Nc2ccccc2F)cc1,0.81
CC(NC(=O)CCC(=O)N1CCN(S(=O)(=O)c2ccc(Cl)cc2)CC1)c1ccccc1 (centres undefined),1.6
Cn1c(-c2sc3cc(C(F)(F)F)cnc3c2-c2ccccn2)n[nH]c1=S,-0.22
NC(=O)c1ccc(NC(=O)c2ccc3c(c2)OCO3)cc1,0.91
CCOc1c(Br)cc(/C=C2\C(=O)N(CCC#N)N=C2C)cc1OC,1.5
O=C(Cc1c[nH]c2ccccc12)NNC(=O)c1ccccc1,0.51
COc1ccc(-c2nc3c(n2O)CCC/C3=N\O)cc1,-0.89
Fc1ccc(C2C3=C(Nc4ncnn42)c2ccccc2OC3c2ccncc2)cc1 (centres undefined),0.36
Cc1c(Br)c([N+](=O)[O-])nn1CC(=O)NCc1cccs1,-1.7
Cc1cc(OC(=O)c2ccccc2[N+](=O)[O-])c([N+](=O)[O-])c(=O)[nH]1,0.01
Cc1ccc(NC(=O)CCc2ccc(S(=O)(=O)NC3CCCCC3)cc2)cc1,-0.51
Nc1ccc2nc[nH]c2c1,-0.18
Cc1ccc(C(=O)c2oc3nc(C)cc(C)c3c2N)cc1,1.7
O=C(CSc1cn(CC(=O)N2CCOCC2)c2ccccc12)N1CCOCC1,-0.58
O=C(COC(=O)CN1C(=O)NC2(CCCC2)C1=O)Nc1ccccc1C(F)(F)F,0.05
CCOC(=O)c1cnc(SCC)[nH]c1=O,-1
COc1ccc(N(CC(=O)N/N=C/c2cccc3c2OCCO3)S(=O)(=O)c2ccc(NC(C)=O)cc2)cc1,2.2
O=C(Nc1ccc(Br)cc1)c1ccc(N2C(=O)C3CCCCC3C2=O)cc1 (centres undefined),-2.3
C/C(=N\NC(=O)CSc1nnc(C)s1)c1ccc(Cl)cc1,-0.09
CC(C)(C)C1CCc2onc(C(=O)NC3CCCC3)c2C1 (centres undefined),0.7
Cc1cccc(OCC(=O)Nc2ccc(N3CCN(S(C)(=O)=O)CC3)cc2)c1C,1.2
COc1ccccc1CC(=O)O/N=C(\N)c1ccccn1,2
CC(=O)c1nnn(-c2cccc([N+](=O)[O-])c2)c1C,0.44
CCc1c(C)n([O-])c2c([n+]1=O)CCC2,-2.5
S=C(Nc1ccccc1Cl)N(Cc1ccccc1)Cc1ccccn1,1.4
COC(=O)C1C(=O)CC(C)(O)C(C(=O)OC)C1/C=C/c1ccccc1 (centres undefined),0
COC(=O)c1ccc(-c2ccc(/C=N/N3C(=O)C4C5C=CC(C6CC56)C4C3=O)o2)cc1 (centres undefined),3.1
CNC(=S)N1CCN(c2nc(-c3cccc(OC)c3)cs2)CC1,0
Cc1cc(C(F)(F)F)nc(SCC(=O)Nc2ccccc2)n1,-2.6
CCCc1cc(=O)oc2c(C)c(OCC(=O)N3CCC[C@@H]3C(=O)O)ccc12,-0.96
c1ccc2[nH]c(CN3CCCCC3)nc2c1,0.25
Cc1cccc(Cn2cnc3c(nnn3Cc3ccc(F)cc3)c2=O)c1,1.8
CS(=O)(=O)N1CCCC(C(=O)Nc2ccccc2Cl)C1 (centres undefined),0.81
COc1ccc(NC2CCCN(C(=O)c3csc(C(C)C)n3)C2)cc1OC (centres undefined),-1
Cc1cccc(NC(=S)N(C)C2CCCCC2)c1,0.09
O=C(CSc1ccc(Cl)cc1)c1ccco1,0.13
O=C(c1cc(F)c(F)cc1Cl)N1CCOCC1,0.1
O=C(CN1CCCC1)Nc1ccc(-c2nc3cc(NC(=O)CN4CCCC4)ccc3o2)cc1,-0.76

Some of these compounds in order of count of non-hydrogen atoms, lowest first:
Molecule,Kir21 inh
O=C(CSc1ccc(Cl)cc1)c1ccco1,0.13
CS(=O)(=O)N1CCCC(C(=O)Nc2ccccc2Cl)C1 (centres undefined),0.81
Cc1cc(C(F)(F)F)nc(SCC(=O)Nc2ccccc2)n1,-2.6
CNC(=S)N1CCN(c2nc(-c3cccc(OC)c3)cs2)CC1,0
Cc1cccc(Cn2cnc3c(nnn3Cc3ccc(F)cc3)c2=O)c1,1.8

Later entries
Molecule,Kir21 inh
CCOC(=O)c1c(NC(=O)c2c(Br)cnn2CC)sc(C)c1C,0.13
COc1ccc(-c2[nH]ncc2CN2CCC(N3CCSCC3)CC2)cc1F,-0.1
COc1ccccc1C(=O)NNC(=O)c1ccc(Cl)cc1,-1
COC(=O)C1(S(=O)(=O)c2cc(Br)cc3c2N(C(C)=O)CC3)CC1,-0.88
O=C(CCn1c(=O)sc2ccccc21)NCc1cccs1,0.42
Cc1cccc(C)c1OCc1nnc(SCC(=O)NCc2ccccc2)o1,-1.3
O=C(NCc1ccco1)C(c1ccco1)N(C(=O)Cn1nnc2ccccc21)c1ccc2c(c1)CCC2 (centres undefined),-0.97
Cc1nnc(NC(=O)CSc2nnc(-c3ccc(S(=O)(=O)N4CCCC4)cc3)n2C)s1,1.1
COc1cc(C2=Nc3c(c(C)nn3-c3ccccc3)P(=O)(N3CCOCC3)O2)cc(OC)c1OC (centres undefined),0.07
CC(C)NCC(O)COc1ccc(Br)cc1 (centres undefined),0.32
COc1ccc(NC(=O)C2CCCN(S(=O)(=O)c3cccc4nonc34)C2)cc1 (centres undefined),-1.3
CCOc1ccc(N(C)S(=O)(=O)c2ccc3[nH]cc(C(=O)NCCCOC)c(=O)c3c2)cc1,-0.37
O=C(c1ccc(F)cc1)N1CCN(C2CC3CCC2C3)CC1 (centres undefined),-1.2
CCC1(C)Cc2c(sc3nn[nH]c(=O)c23)CO1 (centres undefined),-0.48
O=C1CSC(c2ccccc2)N1Cc1ccccn1 (centres undefined),-0.49
Cc1cccc(OCc2nnc(SCC(=O)N3CCCC3)o2)c1,0.08
C=CCN1C(=O)C(CCCC)NC1=S (centres undefined),-0.19
CCCCOC(=O)CCN1C(=O)/C(=C2\SC(=S)N(CCC(=O)OCCCC)C2=O)SC1=S,-1.1
CCn1nc(C)c(Br)c1-c1nc(CS(=O)(=O)c2ccc(F)cc2)no1,-2.9
O=S(=O)(Nc1cccnc1)c1cccc(Cl)c1,0.05
CCCCc1ccc(NC(=O)COc2ccc(C(=O)Nc3ccccc3C)cc2)cc1,-1.2
CC(C)OC(=O)C(C#N)c1nc2ccccc2nc1N1CCN(Cc2ccccc2)CC1 (centres undefined),1.4
CCCCCCOC(=O)c1ccc(NC(=O)c2cc(OC)c(OC)c(OC)c2Br)cc1,0.81
O=C(/C=C/c1ccc2c(c1)OCCO2)c1ccccc1,-0.07
N#Cc1c2ncn(CC(=O)c3ccc(Br)cc3)c(=O)c2c2n1CCC2,-1.7
CCN(CC)CCn1c(C)nc2ccccc21,-0.91
NC(=O)c1sc2nc3c(cc2c1N)CCC3,0.97
Cc1cc(-c2ccccc2)nc(N(C)NC(=O)C(C)(C)C)c1S(C)(=O)=O,0.74
COc1ccccc1N1CCN(CCCCOc2c(OC)cccc2OC)CC1,0.2
O=C(c1ccc(N2CCCC2=O)cc1)N1CCN(c2ccccc2)CC1,-0.71
CCCCN1C(=O)C(CC(=O)NCC)SC1=Nc1ccccc1 (centres undefined),0.76
Cc1ccccc1NC(=O)C1CCCN(S(=O)(=O)c2c(C)noc2C)C1 (centres undefined),-2.6

Some of the compounds tested, and most or all hits are left out here.
